Source: PubChem BioAssay
BmaI1: BmaI1 acyl-homoserine lactone synthase inhibition – biochemical, fluorescence intensity, with counterscreen (AID 720554); BmaI1 enzyme assay, fluorescence intensity; active compounds read high; test concentration not given here; a few actives read low; strong numbers were not always called active; inhibition, %; actives 0.4% (n = 12,000);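 active = both replicates within 2 robust z-scores of the inhibited control and a quiet counterscreen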;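 also: 0% = uninhibited enzyme and 100% = inhibited control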
BmaI1 counterscreen: second read-out of BmaI1, no call of its own (marks repeat the call); inhibition, %; measured here: counterscreen; design of the counterscreen not given here;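 first of two replicates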
The depositor's hits bear a star. The list is partial; rates above refer to the full screens.

Screening Cc1cc(C)c2c(-n3cccc3)c(C(=O)NC3=NCCS3)sc2n1 returned BmaI1 40 and BmaI1 counterscreen 0.
NC(=O)C1CCN(C(=O)COC(=O)C23CC4CC(CC(C4)C2)C3)CC1 was read as BmaI1 0 and BmaI1 counterscreen 2.
`O=C(Nc1ccc(Cl)cc1)N1CCC(O)CC1` gave BmaI1 14 and BmaI1 counterscreen 8.
O=C1CCCCC1Sc1nnc(-c2ccco2)n1-c1ccccc1 (configuration not stated) was read as BmaI1 18 and BmaI1 counterscreen 0.
`COc1ccc(C(C)(C)C)cc1NC(=O)COC(=O)C1CC(=O)N(Cc2ccco2)C1` (configuration not stated) gave BmaI1 8 and BmaI1 counterscreen 4.
Screening Cc1ccc(S(=O)(=O)N2CCN(C(=O)CCC(=O)NC3CCCc4ccccc43)CC2)cc1 (configuration not stated) returned BmaI1 8 and BmaI1 counterscreen 12.
`O=C(Nc1ccc(N2CCCCCC2)cc1)c1ccncc1` gave BmaI1 62 and BmaI1 counterscreen 26.
For O=C(CNC(=O)Nc1ccc(Cl)c(Cl)c1)NC1CC1 the results were BmaI1 9 and BmaI1 counterscreen 0.
`Cc1ccc(/C=N/N2CCCCC2)o1` gave BmaI1 -102 and BmaI1 counterscreen -70.
Screening CN1/C(=C\P(=O)(c2ccccc2)N2CCOCC2)C(C)(C)c2ccccc21 (configuration not stated) returned BmaI1 13 and BmaI1 counterscreen -4.
`CC(C)(CSc1nncn1/N=C/c1ccco1)NS(=O)(=O)c1ccc(Cl)cc1` gave BmaI1 8 and BmaI1 counterscreen -2.
`CCn1c(C)nc2cc(C(=O)n3cc(C(=O)c4ccccc4O)cn3)ccc21` gave BmaI1 27 and BmaI1 counterscreen 16.
Screening Cc1cccc(-n2c(C)c(C)c3c(N)ncnc32)c1 returned BmaI1 10 and BmaI1 counterscreen -3.
CC1(C)CC2=NN(c3ccccc3)P(=O)(N3CCCCC3)C2=C(N2CCOCC2)C1 (configuration not stated) was read as BmaI1 8 and BmaI1 counterscreen -6.
Cc1ccc(S(=O)(=O)Nc2nc3ccccc3nc2N2CC(C)OC(C)C2)cc1 (configuration not stated) was read as BmaI1 12 and BmaI1 counterscreen 12.

15 neighbouring entries from above, quoted:
Screening Cc1cc(C)c2c(-n3cccc3)c(C(=O)NC3=NCCS3)sc2n1 returned BmaI1 40 and BmaI1 counterscreen 0.
NC(=O)C1CCN(C(=O)COC(=O)C23CC4CC(CC(C4)C2)C3)CC1 was read as BmaI1 0 and BmaI1 counterscreen 2.
`O=C(Nc1ccc(Cl)cc1)N1CCC(O)CC1` gave BmaI1 14 and BmaI1 counterscreen 8.
O=C1CCCCC1Sc1nnc(-c2ccco2)n1-c1ccccc1 (configuration not stated) was read as BmaI1 18 and BmaI1 counterscreen 0.
`COc1ccc(C(C)(C)C)cc1NC(=O)COC(=O)C1CC(=O)N(Cc2ccco2)C1` (configuration not stated) gave BmaI1 8 and BmaI1 counterscreen 4.
Screening Cc1ccc(S(=O)(=O)N2CCN(C(=O)CCC(=O)NC3CCCc4ccccc43)CC2)cc1 (configuration not stated) returned BmaI1 8 and BmaI1 counterscreen 12.
`O=C(Nc1ccc(N2CCCCCC2)cc1)c1ccncc1` gave BmaI1 62 and BmaI1 counterscreen 26.
For O=C(CNC(=O)Nc1ccc(Cl)c(Cl)c1)NC1CC1 the results were BmaI1 9 and BmaI1 counterscreen 0.
`Cc1ccc(/C=N/N2CCCCC2)o1` gave BmaI1 -102 and BmaI1 counterscreen -70.
Screening CN1/C(=C\P(=O)(c2ccccc2)N2CCOCC2)C(C)(C)c2ccccc21 (configuration not stated) returned BmaI1 13 and BmaI1 counterscreen -4.
`CC(C)(CSc1nncn1/N=C/c1ccco1)NS(=O)(=O)c1ccc(Cl)cc1` gave BmaI1 8 and BmaI1 counterscreen -2.
`CCn1c(C)nc2cc(C(=O)n3cc(C(=O)c4ccccc4O)cn3)ccc21` gave BmaI1 27 and BmaI1 counterscreen 16.
Screening Cc1cccc(-n2c(C)c(C)c3c(N)ncnc32)c1 returned BmaI1 10 and BmaI1 counterscreen -3.
CC1(C)CC2=NN(c3ccccc3)P(=O)(N3CCCCC3)C2=C(N2CCOCC2)C1 (configuration not stated) was read as BmaI1 8 and BmaI1 counterscreen -6.
Cc1ccc(S(=O)(=O)Nc2nc3ccccc3nc2N2CC(C)OC(C)C2)cc1 (configuration not stated) was read as BmaI1 12 and BmaI1 counterscreen 12.

Returning to the listing with the two entries that preceded the break.
CC1(C)CC2=NN(c3ccccc3)P(=O)(N3CCCCC3)C2=C(N2CCOCC2)C1 (configuration not stated) was read as BmaI1 8 and BmaI1 counterscreen -6.
Cc1ccc(S(=O)(=O)Nc2nc3ccccc3nc2N2CC(C)OC(C)C2)cc1 (configuration not stated) was read as BmaI1 12 and BmaI1 counterscreen 12.
Screening Cc1ccc(-n2c(SC3CCCC3=O)nnc2-c2ccncc2)cc1C (configuration not stated) returned BmaI1 26 and BmaI1 counterscreen 6.
Cc1ccccc1CN(C)C(C)C(=O)NCc1ccccc1 (configuration not stated) was read as BmaI1 8 and BmaI1 counterscreen 3.
For CN(CC(=O)Nc1ccc(Cl)cc1)C(=O)Cn1nnc2ccccc2c1=O the results were BmaI1 -4 and BmaI1 counterscreen -2.
`COc1ccc(/C=C/C(=O)O)cc1S(=O)(=O)N(C)C` gave BmaI1 6 and BmaI1 counterscreen 0.
`CCOC(=O)/C=C1\SCC(=O)N1CCOc1ccccc1C#N` gave BmaI1 7 and BmaI1 counterscreen 8.
CCN(CC)S(=O)(=O)c1ccc(N2CC(C(=O)N3CCCc4ccccc43)CC2=O)cc1 (configuration not stated) was read as BmaI1 11 and BmaI1 counterscreen 0.
For CCCn1c(C)cc(C(=O)Cn2ncc(Cl)c(Cl)c2=O)c1C the results were BmaI1 4 and BmaI1 counterscreen -6.
For O=c1[nH]c(CN2CCc3ccccc32)nc2ccccc12 the results were BmaI1 30 and BmaI1 counterscreen 16.
Screening CCOC(=O)Nc1ccc2c(CN3CCc4ccccc4C3)cc(=O)oc2c1 returned BmaI1 8 and BmaI1 counterscreen -8.
For O=C(Nc1ccc(S(=O)(=O)C(F)F)cc1)c1cccnc1N1CCCC1 the results were BmaI1 -8 and BmaI1 counterscreen -3.
Screening N#CC(C(=O)CCN1C(=O)C2CC=CCC2C1=O)c1nc2ccccc2[nH]1 (configuration not stated) returned BmaI1 -2 and BmaI1 counterscreen -6.
`CCN(CC)S(=O)(=O)c1ccc(=O)n(CC(=O)c2ccc[nH]2)c1` gave BmaI1 16 and BmaI1 counterscreen 2.
Cc1cc(NS(=O)(=O)c2ccc(N)cc2)no1 was read as BmaI1 1 and BmaI1 counterscreen 8.
For O=C(Nc1ccccc1N1CCOCC1)C1(c2ccccc2)CC1 the results were BmaI1 8 and BmaI1 counterscreen 6.
`COc1cccc(-c2nc(CN3CCN(c4ccccc4OC)CC3)cs2)c1` gave BmaI1 -6 and BmaI1 counterscreen -11.
For Cc1ccc(-c2nnn(CC(=O)N3CCCC3c3ccc4c(c3)OCCCO4)n2)cc1 (configuration not stated) the results were BmaI1 14 and BmaI1 counterscreen -5.
`Cn1cccc1C(=O)OCC(=O)c1c[nH]c2ccccc12` gave BmaI1 14 and BmaI1 counterscreen 13.
For CC(C)NC(=S)N/N=C/c1ccccc1C(=O)O the results were BmaI1 -3 and BmaI1 counterscreen 2.
Screening CCOC(=O)N1CCC(=NNC(=S)Nc2c(C)cccc2C)CC1 returned BmaI1 20 and BmaI1 counterscreen 2.
CC(Sc1nnc(-c2ccccc2F)n1CCc1ccccc1)C(=O)NCc1ccco1 (configuration not stated) was read as BmaI1 13 and BmaI1 counterscreen 8.
`COc1ccc(Nc2ncc3c(n2)CC(c2ccccc2)CC3=O)cc1` (configuration not stated) gave BmaI1 4 and BmaI1 counterscreen -4.
CN(C(=O)Cc1cccc2ccccc12)C(C)(C)C#N was read as BmaI1 17 and BmaI1 counterscreen 8.
For CC1=C(C(=O)N2CCOCC2)C(c2ccccc2)NC(=O)N1 (configuration not stated) the results were BmaI1 7 and BmaI1 counterscreen 0.
For O=C(CSc1nn(-c2ccc(F)cc2)c(=S)s1)NC1CC1 the results were BmaI1 4 and BmaI1 counterscreen 0.
Screening CSc1ccccc1NC(=O)CN(C)S(=O)(=O)c1ccccc1Cl returned BmaI1 2 and BmaI1 counterscreen -4.
Screening CN(C)S(=O)(=O)c1ccc2c(c1)/C(=C\CCN1CCNCC1)c1ccccc1S2 returned BmaI1 14 and BmaI1 counterscreen 18.
For COc1ccc2c(CN(C)c3ccccc3)cc(=O)oc2c1 the results were BmaI1 18 and BmaI1 counterscreen 5.
Screening COc1ccc(N(CCC(=O)O)S(=O)(=O)c2cccc(Cl)c2)cc1 returned BmaI1 10 and BmaI1 counterscreen 8.
For CN(CC(=O)Nc1ccc(C(N)=O)cc1)Cc1ccc(C(F)(F)F)cc1 the results were BmaI1 -3 and BmaI1 counterscreen -4.
Screening CCc1ccccc1NCC(=O)Nc1cccc(OC)c1 returned BmaI1 19 and BmaI1 counterscreen 6.
O=C1CCC(C(=O)OCc2cccc(C(F)(F)F)c2)=NN1 was read as BmaI1 6 and BmaI1 counterscreen 4.
`CC1(C)C(=O)Nc2ccccc2N1C(=O)CSc1ncnc2ccccc12` gave BmaI1 18 and BmaI1 counterscreen 10.
`O=C(CSc1n[nH]c(-c2ccncc2)n1)c1ccc[nH]1` gave BmaI1 25 and BmaI1 counterscreen 21.
Cc1cc(C)nc(NNC(=S)Nc2ccc(S(=O)(=O)N3CCOCC3)cc2)n1 was read as BmaI1 74 and BmaI1 counterscreen -18.
For CN(C1CCCCC1)S(=O)(=O)c1ccccc1C#N the results were BmaI1 3 and BmaI1 counterscreen 0.
For CCCN1C(=O)/C(=N\OCC(=O)Nc2ccc3c(c2)OCO3)c2ccccc21 the results were BmaI1 18 and BmaI1 counterscreen 10.
Screening O=C(CSc1ncccn1)N(Cc1ccccc1)C1CCS(=O)(=O)C1 (configuration not stated) returned BmaI1 24 and BmaI1 counterscreen 18.
CC(Sc1nnc(-c2c[nH]c3ccccc23)o1)C(=O)Nc1ccccc1 (configuration not stated) was read as BmaI1 28 and BmaI1 counterscreen 52.
For CCOc1ccc2cc(C(=O)c3ccc(OC(F)F)cc3)oc2c1 the results were BmaI1 3 and BmaI1 counterscreen 2.
Screening O=C(O)/C=C/S(=O)(=O)c1ccccc1 returned BmaI1 18 and BmaI1 counterscreen 5.
Screening O=C(CSc1nncs1)NC(=O)C1CCCCC1 returned BmaI1 6 and BmaI1 counterscreen 5.
`CS(=O)(=O)c1ccc(C(=O)OCc2cc(=O)n3ccsc3n2)cc1` gave BmaI1 8 and BmaI1 counterscreen 6.
`C=CCn1c(COc2ccccc2F)nnc1SC(C)C(=O)NC(N)=O` (configuration not stated) gave BmaI1 6 and BmaI1 counterscreen 0.
`Cc1ccccc1NC(=O)Cc1nc(CSc2nnnn2C)cs1` gave BmaI1 8 and BmaI1 counterscreen 7.
Screening COC(=O)C1=NC=CN2CCS(=O)(=O)N=C12 returned BmaI1 7 and BmaI1 counterscreen 10.
O=C1c2ccccc2C(=O)N1/N=C/c1cn(-c2ccccc2)nc1-c1cc2ccccc2o1 was read as BmaI1 10 and BmaI1 counterscreen 12.
`Cc1ccc(CN(C)C(=O)c2ccc(N3C(=O)c4ccccc4C3=O)cc2)o1` gave BmaI1 14 and BmaI1 counterscreen 0.
Screening O=C1c2ccccc2C(=O)N1CSc1nnc(Cc2cccs2)n1CCc1ccccc1 returned BmaI1 17 and BmaI1 counterscreen 11.
Screening CS(=O)(=O)c1ccc(Cl)c(NC(=O)c2ccc3c(=O)n4c(nc3c2)CCC4)c1 returned BmaI1 10 and BmaI1 counterscreen 5.
`CCn1c(C)nc2cc(C(=O)N=Nc3c(O)[nH]c4ccccc34)ccc21` gave BmaI1 36 and BmaI1 counterscreen 47.
O=C(CSc1ncccn1)N1CCN(C(=O)c2ccco2)CC1 was read as BmaI1 10 and BmaI1 counterscreen 8.
`Cc1nc(SCc2nnc(-c3ccccc3)o2)c(C(N)=O)c(C)c1C` gave BmaI1 50 and BmaI1 counterscreen 8.
For Cc1cc(/C=N/N2CCOCC2)c(C)n1-c1cccc2ccccc12 the results were BmaI1 14 and BmaI1 counterscreen -2.
Screening O=C(COC(=O)C1CCN(C(=O)Nc2ccccc2)CC1)Nc1ccc2c(c1)OCO2 returned BmaI1 16 and BmaI1 counterscreen 8.
For O=C(NCc1ccco1)c1cc(S(=O)(=O)NCc2ccco2)c[nH]1 the results were BmaI1 8 and BmaI1 counterscreen 5.
O=C(Nn1cnnc1)c1ccc(OC(F)(F)C(F)C(F)(F)F)cc1 (configuration not stated) was read as BmaI1 6 and BmaI1 counterscreen -2.
Cc1ccc(NS(=O)(=O)c2ccccc2C(F)(F)F)cc1C was read as BmaI1 3 and BmaI1 counterscreen 0.
CCOC(=O)c1sc(N)c(C#N)c1CSc1nc2sc3c(c2c(=O)n1C)CCCC3 was read as BmaI1 34 and BmaI1 counterscreen 22.
`Cn1nc(C(=O)Nc2ccc3c(c2)OC2(CCCC2)O3)ccc1=O` gave BmaI1 12 and BmaI1 counterscreen 6.
`CCOC(=O)c1oc2ccc(Br)cc2c1CSc1nnc(C(F)(F)F)n1C` gave BmaI1 7 and BmaI1 counterscreen 10.
`NS(=O)(=O)c1cc2c(cc1C(F)(F)F)NCNS2(=O)=O` gave BmaI1 -4 and BmaI1 counterscreen 0.
CC(C)CC1NC(=O)N(Cc2ccc(CN3C(=O)NC(CC(C)C)C3=O)cc2)C1=O (configuration not stated) was read as BmaI1 6 and BmaI1 counterscreen 4.
O=C(c1ccccc1)N1CCN(C(=O)c2ccc3c(c2)OCO3)CC1 was read as BmaI1 -8 and BmaI1 counterscreen -6.
Cc1ccc2c(c1)sc(=NC(=O)/C=C/c1ccc(Br)o1)n2C was read as BmaI1 6 and BmaI1 counterscreen 4.
N#Cc1ccc(CSc2nc(-c3cccs3)c(-c3cccs3)[nH]2)cc1 was read as BmaI1 28 and BmaI1 counterscreen 26.
Screening CC(=O)Nc1sc(C)c(C)c1CN1CCCC(C)C1 (configuration not stated) returned BmaI1 18 and BmaI1 counterscreen 11.
Cc1cc(C)nc(SCC(=O)OCc2cc(=O)n3cc(Br)ccc3n2)n1 was read as BmaI1 11 and BmaI1 counterscreen 10.
`O=C1Nc2ccc(Cl)cc2[C@@](C#CC2CC2)(C(F)(F)F)O1` gave BmaI1 0 and BmaI1 counterscreen 6.
